NPYLR7 agonist: agonists of mosquito NPYLR7 receptor, primary screen, cell-based, Aedes aegypti, calcium fluorescence, mosquito biting behavior. HEK293T NPYLR7/Galpha15, GCaMP6s calcium fluorescence. actives 0.15% (n = 270,000). activation, % at 10 µM; in the data active = activation above about 40%;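 note: 0% = vehicle and 100% = reference agonist at the receptor; some compounds past the cut are filed as inactive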
NPYLR7 agonist max-min: second read-out of NPYLR7 agonist, no call of its own (marks repeat the call); activation, %; measured here: Max-Min RFU normalised activation; some inactives read as strong as hits;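 span of the calcium signal over five minutes; 0% = vehicle and 100% = native peptide agonist; compound fluorescence can raise it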
* marks the source's active call; other numbers are inactive results; & = joins results of further samples. An excerpt; count on the stated rates, not on these rows.

SMILES	NPYLR7 agonist	NPYLR7 agonist max-min
CCc1cccc(C)c1NC(=O)c1c(-c2ccccc2)noc1C	19	18
COCCN(CCC(=O)N1CCN(c2ccccc2F)CC1)c1nc(-c2cccs2)nc2ccccc12	7	20
Cc1cc(C)cc(-n2nnc3c(=O)n(CC(=O)Nc4ccccc4C)cnc32)c1	-4	-7
O=C(CCN1C(=O)c2ccccc2C1=O)Nc1ccc2c(c1)OCCO2	21	12
CNc1nc2cnc(-c3cccc4ccccc34)cc2n1-c1cccc(F)c1	7	1
C=CCN(CC(=O)N(Cc1ccc(F)cc1)Cc1ccc(C)s1)C(=O)c1ccc(Cl)cc1	19	27
CC(=O)Nc1ccc(CN(C)c2c(C)nc3ccc(C(=O)N4CCN(C)CC4)cn23)cc1	11	-2
Cn1cnc(S(=O)(=O)Nc2cc(C(F)(F)F)[nH]n2)c1Cl	-1	27
O=C(/C=C/c1nccs1)N1CCN(C(=O)Nc2ccc(F)cc2)CC1	0	-5
COCCN(Cc1ccc(OS(C)(=O)=O)cc1)C(=O)NC1CCCCC1	-2	3
O=C(O)c1ccc2c(c1)C(=O)N(c1ccc(-c3nc(-c4ccccc4)c4ccccc4n3)cc1)C2=O	-6	-11
C=C(O)C(C)=O	-2	-25
CCOC(=O)c1cc(-c2cccc(NC(=O)c3c(C)noc3C)c2)n(-c2cccc(C)c2)n1	22	3
COc1ccccc1N1C(=O)/C(=C2/C(=O)N(C)c3ccccc32)SC1=S	0	-5
Cc1ccc2nc(N(CCCN(C)C)C(=O)c3ccc(Br)s3)sc2c1	-1	-3

An excerpt of these results, with two lines to a compound:
Second line of a record – NPYLR7 agonist | NPYLR7 agonist max-min
COCCN(Cc1ccc(OS(C)(=O)=O)cc1)C(=O)NC1CCCCC1
    -2 | 3
O=C(O)c1ccc2c(c1)C(=O)N(c1ccc(-c3nc(-c4ccccc4)c4ccccc4n3)cc1)C2=O
    -6 | -11
C=C(O)C(C)=O
    -2 | -25
CCOC(=O)c1cc(-c2cccc(NC(=O)c3c(C)noc3C)c2)n(-c2cccc(C)c2)n1
    22 | 3

The main list resumes with the seven entries that preceded the break.
SMILES	NPYLR7 agonist	NPYLR7 agonist max-min
O=C(/C=C/c1nccs1)N1CCN(C(=O)Nc2ccc(F)cc2)CC1	0	-5
COCCN(Cc1ccc(OS(C)(=O)=O)cc1)C(=O)NC1CCCCC1	-2	3
O=C(O)c1ccc2c(c1)C(=O)N(c1ccc(-c3nc(-c4ccccc4)c4ccccc4n3)cc1)C2=O	-6	-11
C=C(O)C(C)=O	-2	-25
CCOC(=O)c1cc(-c2cccc(NC(=O)c3c(C)noc3C)c2)n(-c2cccc(C)c2)n1	22	3
COc1ccccc1N1C(=O)/C(=C2/C(=O)N(C)c3ccccc32)SC1=S	0	-5
Cc1ccc2nc(N(CCCN(C)C)C(=O)c3ccc(Br)s3)sc2c1	-1	-3
CN(C(=O)c1cccc(NCC(=O)O)c1)C(C1CC1)C1CC1	0	7
CC(OCc1ccccc1)C(=O)NC1CCN(C(=O)c2ccccc2F)CC1 (stereo not drawn)	2	1
CC(c1cccs1)N(C)Cc1nc(C(c2ccccc2)c2ccccc2)no1 (stereo not drawn)	-9	-15
COCCn1c(=S)[nH]c2sc3c(c2c1=O)CCCC3	-9	-13
O=C(NC(c1ccccc1)C(Cl)(Cl)Cl)Oc1ccccc1 (stereo not drawn)	2	-2
Cc1cc(I)ccc1NC(=O)CSC(=O)c1ccccc1	4	2
Clc1ccc(C2(NCc3nnnn3-c3ccccc3)CC2)cc1Cl	0	11
Cn1cnn(CN2CCCC2COc2ccccc2)c1=S (stereo not drawn)	2	0
CC(C)C(=O)N(Cc1ccccc1Cl)CC1CC(c2ccc(F)cc2F)=NO1 (stereo not drawn)	10	9
CC1CN(c2cc(Oc3cccc(Cl)c3)ncn2)CCN1C(=O)Cc1cccs1 (stereo not drawn)	0	4
CCn1c(=O)n(C2=C(CO)CN(CC3CCCCCCC3)CC2)c2ccccc21	-9	-12
O=C(c1ccccc1)N1CCC(NCc2ccc3sccc3c2)CC1	20	12
CCOC(=O)C1CCN(C(=O)Cc2csc(NC(=O)CN(C(=O)c3ccc(Cl)cc3)C3CC3)n2)CC1	13	10
Cc1ccc(CN2CCC(CNC(=O)CNC(N)=O)C2)c(C)c1F (stereo not drawn)	33	20
Cc1cc(C(=O)N(C)C2Cc3ccccc3C2)c(NC(=O)C(C)(C)C)s1	-3	-3
O=C(c1ccccc1)N1N=C(c2cccs2)CC1c1cccs1 (stereo not drawn)	5	9
Cc1ccc(-c2noc(COc3cc(C)ccc3C)n2)cc1	-1	-2
CCOC(=O)c1nn(-c2ccccc2C)c(=O)cc1N1CCN(c2ccc(OC)cc2)CC1	7	4
Cc1nnc(SCc2ccc(C(=O)O)cc2)n1-c1cccc(C(F)(F)F)c1	-1	-4
CCONC(=O)c1ccc(CNS(=O)(=O)c2ccc(C)c(C)c2)cc1	12	5
Cc1cc(C)n(C(=O)c2sccc2S(=O)(=O)N(C)c2ccc3c(c2)OCO3)n1	-3	-6
CN1CC2(CCN(C(=O)CCc3cccnc3)C2)OC1=O (stereo not drawn)	8	4
CCN(CC)CCSc1nnc(N2CCN(c3ccccc3)CC2)s1	-5	4
CN1C(=O)C2N=C(Sc3n[nH]c(N)n3)N(C)C2N(C)C1=O (stereo not drawn)	0	-6
C#CCO[C@@H]1C=C[C@H](OC(C)=O)[C@@H](COC(C)=O)O1	-5	-1
CCN(c1cc(C)cc(C)c1)S(=O)(=O)c1cccc(S(N)(=O)=O)c1	5	2
O=C(c1ccccc1Oc1ccccc1)N1CCCC(O)(CO)C1 (stereo not drawn)	2	8
CCC(C(=O)N1CCSC1c1ccccc1OCc1ccccc1)c1ccccc1 (stereo not drawn)	5	4
COc1ccc(-c2nc(CN(C)C(C)c3ccon3)c(C)o2)cc1OC (stereo not drawn)	5	1
Cc1cc(C)cc(-c2nnc(SCc3nc(-c4ccsc4)no3)o2)c1	-2	-1
COc1ccc(/C=C/CN2CCN(C3CCN(C(C)C)CC3)C(CCO)C2)cc1 (stereo not drawn)	13	0
O=C(COc1ccc(Cl)cc1)N1CCCC(OCc2cccc(C(F)(F)F)c2)C1 (stereo not drawn)	-5	1
c1ccc2sc(-c3cncc(CN4CCCC4)c3)cc2c1	6	4
Cn1c(C(=O)O)ccc1-c1ccc(Br)cc1	0	-3
COc1cc(NCC2(c3ccccc3)CCN(C)CC2)ncn1	9	6
C#CCn1cnc2c(nnn2-c2ccc(OC)c(OC)c2)c1=O	-1	-5
O=C(CCl)Nc1ccc(S(=O)(=O)N2CCCCC2)cc1	-3	-10
N#Cc1ccnc(N2CCN(C(=O)NCC(F)(F)F)CC2)c1	-1	-1
COCCN(Cc1ccc(OS(C)(=O)=O)cc1)C(=O)Nc1cc(OC)cc(OC)c1	-3	1
COC(=O)CNC(c1ccccc1)c1cc(C)ccc1NC(=O)c1ccccc1 (stereo not drawn)	-3	-5
Cn1nnc2c(N3CCN(c4cccc(Cl)c4)CC3)ncnc21	11	5
CCCCC(=O)Nc1cc(-c2cn3nc(OC)ccc3n2)ccc1Cl	-8	-12
COc1ccc(S(=O)(=O)Oc2cc(CN(CCN(C)C)C(=O)c3ccccc3Cl)ccc2OC)cc1	18	28
CC(C)OC(=O)c1ccc(N=CC(C#N)c2nc(-c3cccs3)cs2)cc1 (stereo not drawn)	3	2
Cc1ccsc1C1SC(C)C(=O)N1CCN(C(=O)NC(C)(C)C)C(C)C (stereo not drawn)	16	16
COc1ccc(C(C)N(C)Cc2ccco2)cc1 (stereo not drawn)	23	17
CC(NC(=O)C(C)S(C)(=O)=O)c1ccc(-c2cccnc2)cc1 (stereo not drawn)	7	3
COc1ccc(-c2cc(C(=O)N3CCN(c4cccc(C(F)(F)F)c4)CC3)n(-c3cccc(Cl)c3)n2)c(OC)c1	4	14
Cc1cc([N+](=O)[O-])c2[nH]c3c(c2c1)CCNC3=O	-7	-12
CCOc1ccccc1Oc1c(C)oc2c3c(ccc2c1=O)OCN(CCOC)C3	-8	-15
NC(=O)C1CCN(C(=O)c2cc(-c3ccccc3F)nc3cc(-c4ccccc4)nn23)CC1	15	11
CN(CCc1ccccn1)C(=O)c1ccc(-c2cc(-c3ccc(Cl)cc3)[nH]n2)cc1	-13	-14
CN(C)c1ncc(CNC2CC(C)(C)Cc3c2cnn3-c2ccc(F)cc2)s1 (stereo not drawn)	16	1
CCNC(=O)C1CCN(C(=O)c2coc(COc3ccc4ncccc4c3)n2)C1 (stereo not drawn)	-3	-4
COc1ncccc1NC(=O)c1ccc(CN2C[C@@H](C)O[C@@H](C)C2)cc1	7	2
COc1cc(-c2c(-c3ccccc3)ncn2CC(N)=O)c(OC)cc1SC	-3	-5
COc1ccc(OCC(=O)Nc2cc(-c3cccs3)nn2-c2nc(C)cc(=O)[nH]2)cc1	0	-1
COc1ccc(CCN(C)C(=O)CC2Cc3ccccc3C2)cc1OC	-8	-16
O=C1C=C(NCc2ccco2)CCC1	13	9
Cc1nnc2ccc(C(=O)N(C3CC3)C(C)c3ccccc3F)cn12 (stereo not drawn)	-4	-8
Further records follow:
SMILES	NPYLR7 agonist	NPYLR7 agonist max-min
O=C(/C=C/C=C/c1ccc2c(c1)OCO2)N1CCCCC1	-10&-6	-15&-9
CCOC(=NCCN1CCOCC1)NC(=O)c1ccc(Cl)c(Cl)c1	17	16
COC(=O)c1cccc(N2C(=O)C3C4C=CC(C4=C(C)C)C3C2=O)c1 (stereo not drawn)	-2	-3
O=C(NCC1CCCO1)c1cccnc1N1CCN(C(=O)NCCc2ccccc2F)CC1 (stereo not drawn)	-2	-2
O=S(=O)(C1=Cc2ccccc2CC1)N1CCC(c2nc3ccccc3s2)CC1	-3	0
CC1C(=O)N2CCCc3cc(NC(=O)c4cc(Cl)ccc4Cl)cc1c32 (stereo not drawn)	5	-1
CCc1c(C(=O)N(C)Cc2ccccc2)c(CC(C)C)nn1-c1ccc(C)cc1	-7	0
COc1ccc(C(=O)N(Cc2cccc(F)c2)Cc2cc(NC(=O)C3CCC3)ccc2N(C)C)cc1	15	11
CC(NC(=O)Nc1ccccc1)C(=O)OC(C)C(=O)N1C(C)CCCC1C (stereo not drawn)	-2	-4
Cn1nnc2c(N3CCN(C(=O)CC(C)(C)C)CC3)ncnc21	6	19
COc1ccc(N2C(=O)CSC2c2cccnc2)cc1Cl (stereo not drawn)	-7	-14
c1ccc2c(c1)CCCC2C1=NCCN1 (stereo not drawn)	0&-17&1&1	-5&-25&-2&-9
CON(C)S(=O)(=O)c1ccc(NS(=O)(=O)c2cc(Cl)cc(Cl)c2)cc1	2	0
Cc1ccccc1-c1cnc(C(O)c2ccc(-c3ccccc3)cc2)[nH]1 (stereo not drawn)	-1	-1
COc1cc(CN2C(=O)C(C)(C)ON=C2c2ccc3c(c2)OCO3)cc(OC)c1	4	4
CC(C)(CN1CCOCC1)CN1CC[C@@H](N2CCN(c3ccccc3F)CC2)[C@H](O)C1	24	15
CCC(CC)(CC(=O)Nc1ccccc1CO)C(=O)O	-4	-3
O=C(CN1C(=O)CCC1=O)NCc1cc(-c2ccc3c(c2)OCCO3)on1	2	1

Complete entries, looked up by structure.
Shown for CCOC(=NCCN1CCOCC1)NC(=O)c1ccc(Cl)c(Cl)c1 → NPYLR7 agonist = 17; NPYLR7 agonist max-min = 16
Shown for CC(C)(CN1CCOCC1)CN1CC[C@@H](N2CCN(c3ccccc3F)CC2)[C@H](O)C1 → NPYLR7 agonist = 24; NPYLR7 agonist max-min = 15

Screening data: PubChem BioAssay, Fisher Drug Discovery Resource Center
